Compound activity: PubChem, National Center for Advancing Translational Sciences (NCATS)
GLA inh pH 4.5: blocks human alpha-galactosidase A at pH 4.5; 230,000 tested, under 10 active; activity change, negative = inhibition, % at 105 µM; P06280; AID 1467; purified enzyme, 4-MU-alpha-Gal fluorescence, pH 4.5; inconclusive = small, poorly fitted or top-dose-only inhibition, or a rising curve; inactive = flat fitted curve, though single readings scatter; no compound was filed as active;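 note: 0% = full activity with enzyme and -100% = basal without enzyme; dose as in the result columns while the protocol names 77 µM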
Target sequence (P06280 whole entry, looked up): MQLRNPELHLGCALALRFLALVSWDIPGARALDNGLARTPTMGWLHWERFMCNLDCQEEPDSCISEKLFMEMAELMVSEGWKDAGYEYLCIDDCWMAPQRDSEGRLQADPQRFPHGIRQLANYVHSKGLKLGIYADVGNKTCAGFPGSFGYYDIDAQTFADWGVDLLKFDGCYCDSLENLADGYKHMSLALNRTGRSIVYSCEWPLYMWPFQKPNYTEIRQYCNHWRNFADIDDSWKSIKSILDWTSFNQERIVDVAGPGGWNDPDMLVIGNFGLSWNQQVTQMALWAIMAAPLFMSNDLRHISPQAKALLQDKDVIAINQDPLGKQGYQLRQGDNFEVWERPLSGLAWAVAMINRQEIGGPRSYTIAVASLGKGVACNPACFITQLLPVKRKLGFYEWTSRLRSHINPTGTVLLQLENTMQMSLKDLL
miR-21 FLuc: miR-21 reporter, rising signal | AID 2288 | 340,000 tested, under 10 active | Potency, µM (highest dose often 38.3 µM), for the others: top-dose reporter change, positive = more light | HeLa miR-21 FLuc reporter, luciferase, 48 h; active = well fitted rising curve with a large enough effect; inconclusive = small, poorly fitted or top-dose-only effect; inactive = no such curve, though single readings can be large or run the other way;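 note: % of control where 0% means no effect; miR-21 action dims this reporter so a rising signal means less miR-21 action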
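HeLa cells endogenously expressing miR-21, stably carrying CMV-driven firefly luciferase with a downstream miR-21 binding site, 2000 cells/well. Titrations up to approximately 40 uM, 48 hours; luciferase luminescence read.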
Rango dissoc inh: inhibitors of RanGTP-induced Rango-importin beta complex dissociation; O95149+P62826; Biochemical FRET Rango-importin beta, RanGTP-induced dissociation; 340,000 compounds, 0.071% hits; Potency, µM (titrated, usually from 46.1 µM), for the others: at the top dose activity change, negative = inhibition; active means falling FRET ratio curve, often poorly fitted, with flat reads before Ran was added; inconclusive means other falling curves, or compound fluorescence or quenching; inactive means flat or rising ratio curve;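 note: potency is the fitted concentration of half-maximal effect; % of control where 0% means no effect; nearly all actives have a fitted effect of over 45% in size; -100% = wells without RanGTP and RCC1; the record marks most hits as doubtful in a second field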
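Two FRET readings bracket the reaction: one 5 min after compound meets Rango–importin beta, another 45 min after RanGTP-RCC1 (0.6 uM Ran, 0.2 uM RCC1, 2 mM GTP) is added. Only the second defines inhibition.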
Rango-impB inh: inhibitors of Rango-importin beta complex formation | Q14974 | Rango CFP/YFP FRET sensor + importin beta, 45 min | Potency, µM (titrated, usually from 92.2 µM), inactives show at the highest dose inhibition of complex formation | 340,000 compounds, 0.031% hits | AID 540263; active = rising FRET ratio curve, often small or poorly fitted; inconclusive = mostly compound fluorescence or quenching in the first reads; inactive = flat curves in all reads;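 note: potency is the fitted concentration of half-maximal effect; 0% = DMSO wells and 100% = buffer wells lacking importin beta; nearly all actives have a fitted effect of over 15% in size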
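FRET biosensor Rango (snurportin 1 IBB between N-terminal EYFP and C-terminal Cerulean), 50 nM in PBS/1 mM DTT/0.02% Tween-20/0.1% BSA, preincubated 5 min RT with compound; 0.125 microM importin beta added, 45 min RT, CFP/YFP FRET ratio read.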
The depositor's hits bear a star; ? = inconclusive; · = no result given; & = joins results of further samples. A portion of the library; count on the stated rates, not on these rows.

no.	SMILES	GLA inh pH 4.5	miR-21 FLuc	Rango dissoc inh	Rango-impB inh
1	COc1ccc(N(C(=O)Cn2nnc(-c3ccccc3F)n2)C(C(=O)NCC2CCCO2)c2ccc(Cl)cc2)cc1 (configuration not stated)	4	0%	1%	3.1%
2	Cc1ccccc1CN1CCSc2sccc2C1=O	2	1%	-1%	-1.6%
3	Cc1nc(-c2ccccc2)sc1-c1n[nH]c(=S)n1C	4	-18%	-17%	2.4%
4	CC1CCCN(C(=O)c2cc(-c3cccs3)nc3ccccc23)C1 (configuration not stated)	·	·	15%	-3.3%
5	Nc1nc(-c2ccc(Cl)cc2)cc(C(F)(F)F)n1	3	-8%	-6%	-4.6%
6	Nc1cccc(Oc2ccc3c(c2)C(=O)N(CC2CCCO2)C3=O)c1 (configuration not stated)	-15	-38%	-3%	-1.0%
7	COc1ccccc1OCC(=O)Nc1ccc2c(c1)OCCO2	·	-74%	-5%	0.2%
8	CN(CC(=O)Nc1ccccc1Br)C(=O)c1sccc1-c1ccccc1	·	·	8%	-0.5%
9	C[C@H](NC(=O)N1CCn2c1nc1ccccc12)C(=O)NCc1ccc(F)cc1	·	-1%	23%	-1.1%
10	Cn1ccc(NC(=O)Nc2ccc(Cl)cc2)n1	3	-45%	-17%	-2.6%
11	COc1cc(C)c(S(=O)(=O)N2CCOCC2)c(C)c1C	-4	-6%	-7%	1.8%
12	O=C(Nc1nnc(C2CC2)o1)c1ccc(S(=O)(=O)N2CCCc3ccccc32)cc1	-3	?	0%	-2.8%
13	Cc1ccc2[nH]c(=O)c(CN3CCCCC3)c(-c3ccccc3)c2c1	10	-3%	1%	3.6%
14	OCCN(CC(O)COc1ccccc1)CC(O)Cn1ccc2ccccc21 (configuration not stated)	-5	-9%	-4%	1.2%
15	CCN1C(=NCCOC)N[C@@H](CCc2ccccc2)[C@H](C(=O)OC)[C@H]1C	·	-1%&-1%	-1%	-2.6%
16	Cc1nn(CC(=O)NCCc2ccccc2)c(=O)c2ccccc12	3	-6%	1%	-0.9%
17	CCCCOC(=O)c1ccc(NC(=O)CSCc2n[nH]c(=O)[nH]2)cc1	-3	-6%	-7%	-0.5%
18	COc1ccc(CN=C(C)c2c(C(F)(F)F)[nH]n(-c3nc4ccccc4s3)c2=O)cc1	6	-62%	-1%	-0.2%
19	C=C(C)C(=O)Nc1cccc(C2=NOC3(C2)C[C@@H](C(N)=O)N(C(=O)CCCCC)C3)c1 (some centres not stated)	-15	3%	7%	-1.3%
20	Cc1ccsc1C(=O)N1CCCC(CCC(=O)N2CCN(c3ccccn3)CC2)C1 (configuration not stated)	-5	12%	-13%	-0.3%
21	CCCCC(=O)NCCc1ccc(S(N)(=O)=O)cc1	2	0%	2%	0.7%
22	CCOc1cc(C(=O)OC(C)C(=O)Nc2ncc(Cl)cc2Cl)ccc1OCC(=O)N1CCOCC1 (configuration not stated)	2	-3%	0%	-3.5%
23	COc1ccc(CCNC(=O)COC(=O)Cn2cnc3ccccc3c2=O)cc1	4	6%	1%	-1.2%
24	Cc1cc(C)cc(NC(=S)N(CCN(C)C)C(C)c2cccnc2)c1 (configuration not stated)	-11	0%	-1%	-3.3%
25	Cc1cc([N+](=O)[O-])nn1Cc1noc(C(=O)NCc2ccc3c(c2)OCO3)n1	·	-2%	-1%	0.1%

3 structures already listed, ordered by length of the SMILES, largest number first.
no.	SMILES	GLA inh pH 4.5	miR-21 FLuc	Rango dissoc inh	Rango-impB inh
18	COc1ccc(CN=C(C)c2c(C(F)(F)F)[nH]n(-c3nc4ccccc4s3)c2=O)cc1	6	-62%	-1%	-0.2%
14	OCCN(CC(O)COc1ccccc1)CC(O)Cn1ccc2ccccc21 (configuration not stated)	-5	-9%	-4%	1.2%
16	Cc1nn(CC(=O)NCCc2ccccc2)c(=O)c2ccccc12	3	-6%	1%	-0.9%

(cont.)
no.	SMILES	GLA inh pH 4.5	miR-21 FLuc	Rango dissoc inh	Rango-impB inh
26	COc1cc(/C=C/C(=O)/C=C(O)/C=C/c2ccc(O)c(OC)c2)ccc1O	-15&-4	·	?	?
27	COc1cccc(NC(=O)CN(C)C(=O)c2cccc(S(=O)(=O)N3CC4(C)CC3CC(C)(C)C4)c2)c1 (configuration not stated)	·	·	-4%	-1.5%
28	Cc1ccc(CNS(=O)(=O)c2ccc3c(c2)NC(=O)C(C)S3)cc1 (configuration not stated)	·	1%	23%	1.3%
29	COc1cccc(NC(=O)CSc2nc(C3CC3)nc3ccccc23)c1	·	2%	0%	-4.4%
30	Cc1cccn2c(=O)c3cc(C(=O)NCC4CCCO4)c(=N)n(Cc4ccc(F)cc4)c3nc12 (configuration not stated)	·	3%	?	?
31	O=S(=O)(NC1c2cccc3cccc(c23)C1Sc1ncccn1)c1ccccc1 (configuration not stated)	1	0%	0%	1.7%
32	CCN(CC(=O)Nc1ccccc1C(F)(F)F)C(=O)C1CCN(C(=O)Nc2ccccc2)CC1	·	·	3%	2.4%
33	COc1ccc(-n2cnc3cc(NC(=O)c4ccco4)ccc32)cc1	2	-42%	-3%	-1.2%
34	CC(C(=O)NCC1CCCO1)n1cc([N+](=O)[O-])cn1 (configuration not stated)	-5	-4%	-1%	-3.9%
35	COc1ccc2c(N)c(C(=O)NN)[nH]c2c1	-12	-7%	17%	?
36	Cc1ccc(S(=O)(=O)Cc2ccc(C(=O)N3CCc4ccccc4C3)o2)cc1	-3	-4%	-11%	0.5%
37	O=C(NC1CCCCC1)c1ccccc1NC(=O)C1CC1	1	-7%	-4%	2.6%
38	COc1ccc(-c2nnc3sc(CCN4C(=O)c5ccccc5C4=O)nn23)cc1	13	-1%	-2%	-2.6%
39	COc1cc(C)c(N(C(C)=O)c2ccccc2)c(C)c1	4	-6%	0%	4.2%
40	O=[N+]([O-])c1ccc(NC(=S)NCc2ccc(F)cc2)cc1	·	24%	1%	-3.7%
41	CC(c1ccccc1)c1nnc(NC(=O)Nc2ccccc2)s1 (configuration not stated)	·	-5%	1%	0.0%
42	CCOC(=O)C(C#N)c1ccccn1 (configuration not stated)	-11	-33%	0%	1.8%
43	O=C(COC(=O)c1ccco1)NCc1ccc(F)cc1	-10	-2%	-3%	8.4%
44	COc1ccc(-n2c3c(cc(C(=O)Nc4cccc(C)n4)c2=O)C(=O)CC(C)(C)C3)cc1	4	-3%	18%	-0.2%
45	C/C(CC(O)(/C=N/O)c1ccccc1)=N\O (configuration not stated)	5	-8%	-2%	1.4%
46	O=C(Nc1nnc(-c2ccco2)o1)c1ccc(S(=O)(=O)N2CCCC2)cc1	6	21%	2%	-0.2%
47	CCC(C(=O)Nc1ccccn1)c1ccccc1 (configuration not stated)	·	·	6%	2.5%
48	COc1ccc(C)cc1-n1nnnc1SCC(=O)Nc1cc(C)on1	-9	-2%	26%	-5.6%
49	CCc1nnc(NC(=O)COc2ccc(N(C)S(=O)(=O)c3ccc(C)cc3)cc2)s1	1	-2%	18%	0.0%
50	Cc1nc2ccccc2c(=O)n1NCc1cc(Br)cs1	-15	4%	-10%	3.1%
51	Cn1c2ccccc2c(=O)c2ccc(C#Cc3ccccn3)cc21	·	-40%	?	?
52	COc1ccc(CCC(=O)Nc2ccc(S(=O)(=O)N3CCCC3)cc2)cc1OC	·	·	19%	4.0%
53	CN(C)c1ccc(NC(=O)CN2C(=O)c3ccccc3C2=O)cc1	·	-5%	-11%	-3.5%
54	COc1ccc(-n2cnc3sc4c(c3c2=O)CCCC4)cc1	-2	-38%	6%	-0.9%
55	C[C@@H]1ON(C)[C@H]2C[C@H]3c4cc(N5CCOCC5)ccc4CCN3C(=O)[C@@H]12	·	·	-14%	-0.5%
56	Cc1c(C(=O)NCCSCc2ccc(Cl)cc2Cl)cccc1[N+](=O)[O-]	-1	28%	13%	-0.4%
57	Cc1ccccc1/C=C/c1nc2ccccc2c(=O)[nH]1	4	-51%	7%	1.8%
58	COc1ccc(C2(c3ccc(OC)cc3)NC(=O)N(CC(=O)NC3CCCC3)C2=O)cc1	·	·	-1%	3.3%
59	Cc1nccn1CC(=O)N/N=C/c1cccc(O)c1	-4	-2%	0%	-0.1%
60	CCc1ccc(C(=O)COC(=O)CCc2nc3ccccc3c(=O)[nH]2)cc1	-1	-6%	-15%	3.5%
61	CO/N=C(/CS(=O)(=O)Cc1ccccc1Cl)c1ccc(Cl)cc1Cl	-9	-1%	0%	3.5%
62	CCCC(=O)NCc1ccc2c(c1)cc(C)n2C	9	-4%	6%	4.2%
63	COC(=O)c1ccc(CN(C)S(=O)(=O)c2cccs2)cc1	·	-26%	-7%	2.3%
64	CN(C)S(=O)(=O)c1cccc(C(=O)Nc2ccc(Cl)cn2)c1	2	-22%	-10%	0.6%
65	O=C(NNc1ccccn1)c1ccccc1CC[N+](=O)[O-]	3	-27%	5%	2.1%
66	O=C1NC(c2ccccc2Cl)=N/C1=C/c1ccco1	-1	-65%	-23%	?
67	CCC(CC)c1nnc(NC(=O)C2CCCO2)s1 (configuration not stated)	2	-14%	4%	-0.4%
68	CCN(Cc1ccccc1)S(=O)(=O)c1ccc2oc(C(=O)O)c(C)c2c1	-1	1%	31%	-0.3%
69	CN(C(=O)c1cc(S(=O)(=O)N2CCCCC2)c[nH]1)C1CCCCC1	·	7%	6%	2.2%
70	COc1ccc(S(=O)(=O)Nc2ccc(OCC(=O)O)cc2)c2ccccc12	·	-5%	2%	-2.1%
71	Cc1ccc(S(=O)(=O)N(C)C)cc1NC(=O)COC(=O)c1sc2cc(Cl)ccc2c1Cl	4	-1%	-1%	-2.6%
72	CCOc1ccccc1NC(=O)CS(=O)(=O)c1cn(CC(=O)N2CCOCC2)c2ccccc12	·	-4%	2%	-1.8%
73	COc1cc(C(=O)Nc2cccc(-c3nc4cc(C)ccc4o3)c2)cc(OC)c1OC	1	-24%	5%	-0.9%
74	CCCOc1ccc(/C(CC)=N/NC(=O)C2(C)CC2(Br)Br)cc1 (configuration not stated)	-4	-4%	0%	1.1%
75	O=C(CN1C(=O)C2CCCCC2C1=O)Nc1nc2ccc(F)cc2s1 (configuration not stated)	·	·	-7%	1.9%

The results go on:
no.	SMILES	GLA inh pH 4.5	miR-21 FLuc	Rango dissoc inh	Rango-impB inh
76	COC(=O)c1ccc(C(=O)OC)c(NC(=O)c2cccnc2)c1	·	1%	18%	?
77	Cc1cc(C)cc(NC(=S)N2CCN(c3ccccn3)CC2)c1	·	-3%	-14%	?
78	O=C(c1ccccc1)N(Cc1ccco1)C1CCS(=O)(=O)C1 (configuration not stated)	7	-3%	1%	2.1%
79	COc1ccc(S(=O)(=O)NCC2CCCN(C(=O)C3CCCC3)C2)cc1 (configuration not stated)	7	-1%	-4%	1.0%
80	CCOc1ccc(-n2cnc3sc4c(c3c2=O)CCCC4)cc1	0	-24%	1%	0.7%
81	COc1ccc(NC(=O)c2ccc(Cl)cc2)c[n+]1[O-]	·	-5%	1%	-0.3%
82	Cc1cc(C)cc(NS(=O)(=O)c2ccc(NC(=S)NC(=O)c3ccc(Br)o3)cc2)c1	1	23%	-8%	1.4%
83	COc1cc(Cc2cc(N)nc(N)n2)cc(OC)c1OC	·	0%	0%	-0.3%
84	CCc1ccc(OCC(=O)N/N=C2\CC(=O)c3ccccc32)cc1	-1	-15%	·	·
85	Cc1cc(NC(=O)C2CCCO2)ccc1Br (configuration not stated)	0	-10%	-8%	1.0%
86	O=S(=O)(NCC(c1cccnc1)N1CCN(Cc2ccccc2)CC1)c1ccc(Cl)cc1 (configuration not stated)	·	-3%	-6%	-2.5%
87	Cc1ccc(OCC(=O)NNC(=O)Cn2nnc(-c3ccccc3)n2)cc1	2	-1%	15%	-2.0%
88	CN(C)CCN1CC(O)=C(c2nc3ccccc3s2)C1=N	2	-17%	?	?
89	COc1cc2c(cc1OC)C(C(=O)Nc1cc(C)c(OC)c(C)c1)CC(=O)N2 (configuration not stated)	·	-5%	1%	12%
90	Fc1cccc(CCN2CCNC[C@@H]2CC2CCCCC2)c1	·	·	1%	-5.3%
